TRPML1 ag: human mucolipin-1 channel agonism. TRPML1-expressing cells, Ca2+ dye fluorescence, FDSS; host cell line not named in the record; reference of the full effect not given here. AID 624414. activation, % (test concentration not listed). 410,000 compounds, 0.12% hits; in the data active = activation above about 50%; inconclusive = about 30% to 50%; inactive = below about 30%; further: 0% is about no effect; the text of the record puts the active cut at 80%
Target sequence (Q9GZU1 whole entry, looked up): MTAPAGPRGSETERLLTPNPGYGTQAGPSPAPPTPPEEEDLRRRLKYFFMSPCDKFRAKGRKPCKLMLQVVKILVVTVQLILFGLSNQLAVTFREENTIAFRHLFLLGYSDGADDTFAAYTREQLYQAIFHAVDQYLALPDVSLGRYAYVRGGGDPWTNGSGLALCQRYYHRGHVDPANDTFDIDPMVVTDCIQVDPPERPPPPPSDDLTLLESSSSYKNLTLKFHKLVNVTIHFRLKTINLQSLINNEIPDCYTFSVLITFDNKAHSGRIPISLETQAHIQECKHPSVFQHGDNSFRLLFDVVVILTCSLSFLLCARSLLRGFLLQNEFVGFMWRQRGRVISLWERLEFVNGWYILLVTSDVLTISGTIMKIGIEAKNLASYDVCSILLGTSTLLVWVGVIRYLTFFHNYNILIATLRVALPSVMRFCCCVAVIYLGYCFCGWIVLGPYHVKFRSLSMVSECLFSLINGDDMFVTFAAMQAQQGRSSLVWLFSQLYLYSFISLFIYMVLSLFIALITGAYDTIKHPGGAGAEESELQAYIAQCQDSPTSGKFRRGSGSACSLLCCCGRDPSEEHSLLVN
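Cells: TRPML1-DL, 1X Tet inducer, ~16 h at 37 degrees C/5% CO2. Dye: ABD Ca8 no-wash + quencher, 45-90 min RT. Read: 10 s baseline, compound add, 110 s agonist phase; 54-4 EC80 (4uM final), 110 s antagonist phase.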
Menin-MLL FL inh: displaces fluorescein MLL peptide from human menin | Fluorescence polarization, fluorescein-MLL peptide displacement from menin | FP activity change, % at 61.4 µM | 290,000 tested, under 10 active; inconclusive = falling polarisation curve, or a change in total fluorescence; inactive = total fluorescence flat and polarisation flat or rising; no compound was filed as active; the % refers to the polarisation; negative = inhibition;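 further: % of control where 0% means no effect; inhibitors lower the polarisation; unlabelled MLL peptide was the positive control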
gsp antag: antagonists of gsp mutant (McCune-Albright syndrome) | Potency, µM (doses to about 76.9 µM), for inactives: at the top dose activity change, negative = inhibition, most hits filed as inhibitors | 340,000 compounds, 0.4% hits | AID 624288 | gsp-mutant cells, cAMP HTRF, 30 min; control for the full effect not named in the record; active = falling curve of any shape with a large fitted effect; inconclusive = falling curve, mostly with a smaller effect; inactive = flat or rising curve; cell line not stated here;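 further: intracellular cAMP measured with PDE inhibitor Ro 20-1724 present during compound exposure; potency means the concentration at half of the fitted maximal effect; on the % scale 0 is the no-effect control and ±100 the full control effect; nearly all actives have a fitted effect of over 65% in size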
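HTRF cAMP measurement after 30 min RT detection following 30 min, 37C compound treatment alongside […] (added as 300 uM solution) in G418-selected cells seeded at 2000/well and grown 16–24 h.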
ClpP mod: qHTS Assay for Activators of ClpP; ATP-dependent Clp protease proteolytic subunit (Bacillus subtilis (strain 168)), P80244; purified B. subtilis ClpP, FRET peptide cleavage, 20 min; Potency, µM (highest dose often 57.5 µM), for the others: at the highest dose activity change, negative = active; 340,000 compounds, 1.9% hits; active = well fitted falling curve with a large enough effect; inconclusive = small, poorly fitted or top-dose-only effect; inactive = no such curve, though single readings can be large or run the other way; further: potency means the concentration at half of the fitted maximal effect; the source files actives as falling curves though it sought activators and does not explain the sign; nearly all actives have a fitted effect of over 65% in size; many hits overshoot -100%
Target sequence (P80244 whole entry, looked up): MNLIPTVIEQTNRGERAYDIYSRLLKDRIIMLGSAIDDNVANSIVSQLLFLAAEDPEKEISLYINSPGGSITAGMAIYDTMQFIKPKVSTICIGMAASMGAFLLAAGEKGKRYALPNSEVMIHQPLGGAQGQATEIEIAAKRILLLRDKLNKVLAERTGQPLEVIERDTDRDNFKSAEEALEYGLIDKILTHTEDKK
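Buffer: 100 mM Tris/HCl pH8, 100 mM KCl, 0.05% low protease BSA, 2.5% glycerol, 0.01% Tween-20. ClpP 10 microg/mL final; 20 min RT; delta FRET normalized to ADEP and DMSO controls.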
TRPML1 inh: blocks the human TRPML1 channel | AID 624415 | TRPML1-inducible cells, Ca2+ dye fluorescence, FDSS; hits give low values; inhibition of EC80 agonist-evoked calcium signal | activity change, negative = inhibition, % (test concentration not listed) | 390,000 compounds, 0.02% hits | Q9GZU1; in the data active means activity change below about -50%; inconclusive means about -30% to -50%; inactive means above about -30%;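 further: stimulus is agonist 54-4 at its EC80 concentration; on the % scale 0 is the no-effect control and ±100 the full control effect; compound concentration not given in the record; the text of the record puts the active cut at -80%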
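TRPML1-DL cells, Tet-induced overnight (~16 h, 37 °C) at 1,500 cells/well, were loaded with Ca8 no-wash dye plus quencher for 45-90 min at room temperature. Compounds were pinned during FDSS kinetic reading; agonist 54-4 at EC80 (4 uM final) then added.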
gsp ag: activates gsp, the McCune-Albright syndrome mutation; Potency, µM (top dose mostly 76.9 µM), for inactives: at the top dose activation (cAMP increase), hits mostly activators; gsp mutant cells, cAMP HTRF, 30 min; control for the full effect not named in the record; AID 624287; 340,000 compounds, 0.13% hits; active = well fitted activation curve with a large enough effect; inconclusive = small, poorly fitted or top-dose-only effect, or another doubt; inactive = no such curve, though single readings can be large or run the other way; cell line not stated here;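 further: phosphodiesterase inhibitor Ro 20-1724 added with compounds to block cAMP breakdown; potency means the concentration at half of the fitted maximal effect; nearly all actives have a fitted effect of over 60% in size; about a fifth of the inactives were tested at one dose only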
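Cells stably selected in G418 were plated at 2000/well, grown 16-24 hr, then given compounds in DMSO with the PDE inhibitor […] (300 uM solution added) for 30 min at 37C; cAMP was read by HTRF.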
* hit, by the source's call; ? = inconclusive; . = no result given; & = joins results of further samples; [ ] = another dose, or the depositor's remark.

The line under a structure holds: TRPML1 ag, Menin-MLL FL inh, gsp antag, ClpP mod, TRPML1 inh, gsp ag
> Cc1cccc(N2CCN(Cc3nc(C4CC4)no3)CC2)n1
  0.6, 1.6, -4.3%, -6.3%, 45.6, -34.4%[inhibitor]
> CC(C)Cc1nnc(NC(=O)CCC(=O)N2CCN(C3CCCC3)CC2)s1
  -0.4, ., 23.9%, -0.3%, 12.0, ?
> Cc1c(NC(=S)N/C(=N/S(=O)(=O)c2ccc(Cl)cc2)c2ccccc2)c(=O)n(-c2ccccc2)n1C
  -0.4, 3.6, -1.0%, ., 8.0, -4.3%[15.4 µM]
> O=C(OCC(=O)N1CCN(S(=O)(=O)c2ccccc2)CC1)C1CCC1
  -0.7, ., -1.4%, 1.4%, 6.9, -1.7%
> COc1ccc2[nH]c(C(=O)Nc3cccc(C)n3)cc2c1
  0.1, 5.4, -16.8%, ., -0.8, 3.5%
> CCN(CC(=O)NCc1ccc(F)cc1)Cc1cc(=O)n2ccsc2n1
  0.2, -2.7, 4.8%, ., 6.2, 6.5%
> COC(=O)c1[nH]c2cc(C)ccc2c1NC(=O)CN1CCN(c2ccccc2OC)CC1
  -1.8, 1.5, -4.6%, -12.5%, -2.6, -19.7%
> O=C(COc1ccc2c3c(c(=O)oc2c1)CCC3)NC1CCN(Cc2ccccc2)CC1
  -0.4, ., 9.8%, -24.9%, -9.5, 0.3%
> COc1ccc2[nH]c3c(c2c1)CCNC3(C)CCc1ccc(Cl)nc1 (configuration not stated)
  0.0, 0.8, 9.6%, -0.4%, -6.7, 7.9%
> CCc1ccc(NC(=O)C2(c3ccccc3)CC2(Cl)Cl)cc1 (configuration not stated)
  53.9*, -0.4, -4.8%, -4.9%, -12.4, 13.0%
> CCc1ccc(Nc2n[n+](-c3ccccc3)c(-c3cccc(C)c3)s2)cc1
  -0.8, ., -19.7%, 0.1%, -12.9, .
> Cc1ccc(-c2c(C(=O)N/N=C/c3cccc(Cl)c3)nnn2-c2nonc2N)cc1
  -0.4, ?, -11.5%, 2.7%, 2.7, -3.4%
> COc1cc(C(=O)NCc2ccc(C(=O)NCC(OC)OC)cc2)cc(OC)c1OC
  0.5, -5.4, -5.1%, ., -12.9, 15.1%[15.4 µM]
> CCCCNC(=O)C1CCC(CNS(=O)(=O)c2ccc(NC(C)=O)cc2)CC1 (configuration not stated)
  1.2&-0.3, -0.7, 21.8%, 0.2%&1.1%, -1.2&39.2, -1.9%
> O=C(CC1Sc2ccccc2NC1=O)NCc1cccc(Cl)c1 (configuration not stated)
  -0.6, -3.1, 0.5%, ., 4.8, -17.0%[15.4 µM]
> Cc1cccc(C)c1OCC(=O)N(Cc1ccco1)Cc1ccco1
  5.7, ., ., 0.7%, 21.6, .
> O=C(NC(c1ccccc1)c1cnccn1)C1CCN(Cc2ccc(Cl)c(Cl)c2)CC1 (configuration not stated)
  -0.4, ., ., -1.2%, -28.8, .
> Cc1ccc(Cl)c(OCC(=O)NC2CCN(Cc3ccccc3)CC2)c1
  -0.5, ., 10.3%, ., 3.1, 2.4%[15.4 µM]
> CNC(=O)/C(C#N)=C/c1cn(CC(=O)NCc2ccco2)c2ccccc12
  -0.4, -1.5, -3.1%, -12.8%, -2.3, -37.6%
> CC(C#CCN1CCCCC1)OCCOCc1ccccc1 (configuration not stated)
  -0.2, -6.3, 11.3%, -0.8%, -5.1, -18.8%
> Cc1cc(C)c(C(=O)CSc2nnc(N)s2)cc1C
  ., -1.1, 6.1%, 3.3%, ., 9.0%
> CC(C)OC(=O)C(CC(=O)O)N1CCOCC1 (configuration not stated)
  0.0, -1.2, -3.2%, -1.5%, 11.4, -15.7%
> Nc1cc(=O)[nH]c(SCc2nnnn2-c2ccc(Cl)cc2)n1
  -0.3, 0.5, 4.8%, 0.8%, -4.4, -39.7%[inhibitor]
> CCc1cccc(OCC2Cn3c(nc4c3c(=O)[nH]c(=O)n4C)O2)c1 (configuration not stated)
  0.2, -3.1, -3.8%, -1.4%, -1.3, -4.0%
> C#CCOCCOCCOCCNc1nc(N2CCN(C(=O)[C@H](CCC(=O)O)n3cc(C(N)Cc4ccc(O)cc4)nn3)CC2)nc(N2CCN(C(=O)[C@H](Cc3cc4ccccc4[nH]3)n3cc(C(N)[C@H](C)CC)nn3)CC2)n1 (some centres not stated)
  -0.5, 3.1, 12.0%, 0.1%, -11.5, .
> COc1ccc(N2CCN(S(=O)(=O)c3cn(C)c(=O)n(C)c3=O)CC2)cc1
  ., -2.1, -0.4%, -2.2%, ., -14.8%
> CC1C(=O)N(Cc2cn(CCC3OCCCO3)nn2)CCS(=O)(=O)N1Cc1ccc(-c2ccc(F)nc2)cc1 (configuration not stated)
  -0.6, ., ., -0.2%, 10.5, -35.5%[inhibitor]
> COc1ccccc1N1CCN(CC(O)c2ccccc2)CC1 (configuration not stated)
  -0.4, -3.0, 0.1%, ., -9.4, 0.8%[15.4 µM]
> O=C(CCN1CCCCCC1)Nc1ccc(F)c(F)c1
  1.9, 3.6, 3.2%, -0.7%, -2.3, ?
> COc1cc(NC(=O)CSc2ccc(-c3ccccn3)nn2)cc(OC)c1
  1.8&2.6, ., ?, 1.1%&-2.2%, 36.7&-6.5, -31.5%[inhibitor]
> CCCC(C)NC(=O)Cc1ccccc1[N+](=O)[O-] (configuration not stated)
  -0.7, 1.8, 3.9%, -4.6%, -20.0, 16.6%[15.4 µM]
> Cc1ccccc1NC(=O)c1sc2nc3c(c(-c4ccco4)c2c1N)CCC3
  -0.9, 0.2, -13.5%, 1.2%, 11.7, 1.7%
> COc1ccc(COC(=O)C2=C(C)NC(=O)NC2c2cccc(Br)c2)cc1 (configuration not stated)
  3.6, 0.2, -20.5%, 0.4%, 18.1, ?
> COc1ccc(CCN2C(=O)C3C4CC(C5C(C(=O)N/N=C\c6ccc(Cl)cc6)=NOC45)C3C2=O)cc1OC (configuration not stated)
  1.9, -0.5, -9.7%, 2.4%, 13.1, ?
> O=C(COC(=O)COc1ccccc1)Nc1ccc2c(c1)OCCO2
  0.7, ., 3.6%, ., 1.8, 6.6%
> CCOCCCNC(=O)CC1Oc2ccc(C)cc2NC1=O (configuration not stated)
  -0.2, -2.7, 9.8%, 1.3%, 2.7, 9.1%
> Nc1nnc(N2CCCCCC2)s1
  0.3, -5.3, 5.1%, -12.3%, 18.8, -32.0%
> CCC(CC)C(=O)c1c[nH]c(C(=O)NCc2ccccc2OC)c1
  1.2, -1.8, -4.6%, -1.7%, 6.0, -6.9%
> COC(=O)CC1Oc2ccccc2-n2cc(-c3ccccc3)nc21 (configuration not stated)
  2.1, ., ., 1.0%, 4.0, .
> Cc1c(F)cccc1NS(=O)(=O)c1ccc2c(c1)c(=O)n(C)c(=O)n2C
  0.4, 4.2, 4.8%, ., 0.2, ?
> O=C1CC(N2CCN(C(c3ccccc3)c3ccccc3)CC2)C(=O)N1Cc1ccc(N2CCCC2=O)cc1 (configuration not stated)
  0.0, 3.4, -8.3%, 1.4%, 5.7, -54.1%[inhibitor]
> Cc1ccc(S(=O)(=O)NNC(=O)c2cc3cc4ccccc4nc3s2)cc1
  2.4, -1.0, -2.0%, -7.3%, 5.8, -4.1%
> CN(C)c1ccc(-n2c(CCC(=O)O)ccc2-c2ccccc2)cc1
  -0.4, ., ., ?, -14.2, .
> CC1CCN(C(=O)COC(=O)c2ccc3ccccc3n2)CC1
  -0.3, ., -9.7%, -14.9%, -9.9, 12.3%
> Cc1nn(CC(=O)Nc2ccc(C(=O)N3CCCCC3)cc2)c(=O)c2ccccc12
  2.7, 2.2, 13.9%, -3.7%, 4.1, -6.2%
> COc1cc(-c2ccno2)ccc1S(=O)(=O)N1CCN(c2ccc(F)cc2)CC1
  1.7, ., ., 0.4%, -7.9, .
> O=C(Oc1ccc([N+](=O)[O-])cc1)c1cncc(Br)c1
  -0.3, ., -5.1%, -2.7%, 3.9, -21.9%
> Cc1ccc(S(=O)Cc2nc(-c3ccc(C(=O)NCc4cccc(C)c4)cc3)oc2C)cc1 (configuration not stated)
  1.1, ., ., -9.2%, -28.1, .
> CCOC(=O)N1CCC(Nc2cc(C)nc3c(-c4ccccc4OC)c(C)nn23)CC1
  1.2, 1.6, -13.5%, ?, -1.6, -67.4%[inhibitor]
> O=C(NCc1nc2ccccc2[nH]1)C1=C[C@@H](c2ccc(C(F)(F)F)cc2)C[C@@H](OCCCCO)O1
  1.0, ., 1.1%, -2.9%, 40.6, -1.5%
> COc1ccc(Nc2nc(N3CCOCC3)nc(N3CCOCC3)n2)c(OC)c1
  0.5, -3.8, 5.9%, -2.7%, -4.4, -5.6%
> COc1ccc(Cl)cc1-n1c(=S)sc2c(=O)n(-c3ccc(F)cc3)c(SCC(=O)O)nc21
  -0.9, -7.1, -10.7%, 0.0%, 2.5, -2.3%[15.4 µM]
> COc1ccc(OC)c(CNC(=O)C2CCN(S(=O)(=O)c3ccc4[nH]c(=O)oc4c3)CC2)c1
  0.8, ., ., 0.1%, 10.8, .
> Cc1ccc(S(=O)(=O)NCC(C)n2nc(C)cc2C)cc1 (configuration not stated)
  12.3, -1.9, 2.1%, ., 4.0, -36.7%[inhibitor]
> COc1ccccc1N(CC(=O)Nc1ccc2c(c1)OCO2)S(=O)(=O)c1ccccc1
  0.4, -1.3, -31.9%, 3.8%, 1.8, -58.2%[inhibitor]
> Cc1nn(C)cc1NC(=O)c1nn(C)cc1[N+](=O)[O-]
  -0.3, 0.8, -1.2%, -1.2%, -11.2, 31.6%[15.4 µM]
> CC/C(=N\NC(=O)c1cc(C)nc2ccccc12)c1ccc(C)s1
  -0.9, 4.3, 15.6%, -1.1%, -13.2, 6.3%[15.4 µM]
> COc1ccc(CCNC(=S)N2CCN(S(=O)(=O)c3ccc(F)cc3)CC2)cc1
  -0.6, ., -9.0%, 0.2%, -13.8, -7.6%[15.4 µM]
> Cc1ccc(S(=O)(=O)CCC(=O)N2CCN(c3ccccc3O)CC2)cc1
  2.9, ., -15.7%, -3.2%, 8.7, 6.2%
> C[C@@]12C(=O)OC(=O)[C@]1(C)C1CCC2O1
  0.8, ., 1.6%, -2.9%, 1.8, .
> O=C(CC1Nc2ccccc2NC1=O)Nc1cc(Cl)cc(Cl)c1 (configuration not stated)
  -0.1, -2.1, -5.9%, -13.6%, -2.1, -1.0%

High-throughput results from PubChem BioAssay.
